Screening results: PubChem, National Center for Advancing Translational Sciences (NCATS)
Vaccinia Venus: vaccinia inhibition (Venus reporter). Vaccinia virus Venus reporter expression, fluorescence. AID 720580. hit rate 0.46% among 330,000. Potency, µM (doses to about 36.5 µM), for the others: top-dose activity change, negative = inhibition, most hits filed as inhibitors; active means well fitted inhibition curve with a large enough effect; inconclusive means small, poorly fitted or top-dose-only effect; inactive means no such curve, though single readings can be large or run the other way; tested in A549 cells; note: nearly all actives have a fitted effect of over 30% in size; inactives centre near -10
VACV mCherry inh: inhibitors of vaccinia virus infection (mCherry reporter signal). Vaccinia virus mCherry reporter infection, fluorescence; about a quarter of the inactives have no number. Potency, µM (doses to about 36.5 µM), without a hit: at the top dose activity change, negative = inhibition, most hits filed as inhibitors. hit rate 0.63% among 310,000. AID 720579; active = well fitted inhibition curve with a large enough effect; inconclusive = small, poorly fitted or top-dose-only effect; inactive = no such curve, though single readings can be large or run the other way; tested in A549 cells; note: nearly all actives have a fitted effect of over 35% in size; inactives centre near -10
* = called active by the depositor; i = inactive; u = inconclusive; x = not tested or not shown; [ ] = remark or other dose. % is set by controls: 0 for no effect and ±100 for the full control effect; potency is the fitted concentration of half-maximal effect. Random draw from the library; any-hit rate near 0.87%.

| SMILES | Vaccinia Venus | VACV mCherry inh |
| --- | --- | --- |
| COCCn1c(CNC(=O)c2ccccc2C)nc2cccnc21 | -6.5% | -10.4% |
| O=C(OCc1cnc(Cl)s1)c1ccc(Cl)cc1 | 2.6% | x |
| COc1cc(OC)c(S(=O)(=O)N2CCCCC2)cc1S(=O)(=O)N1CCCCC1 | -11.0% | x |
| O=C(Nc1ccc(C(F)(F)F)cc1)c1cc(S(=O)(=O)NC2CCCCC2)ccc1F | -20.4% | -19.5% |
| COc1cc(Cl)c(C)cc1NC(=O)Cn1cnc2sc(C)c(S(=O)(=O)N3CCCCC3)c2c1=O | -20.7% | -14.4% |
| COc1cc(CCN2C(=O)N[C@@H](CCc3ccccc3)C(C(C)=O)=C2C)cc(OC)c1OC | -18.6% | i |
| COc1cc(SC)ccc1C(=O)NNC(=O)c1cc(C)oc1C | -16.5% | -2.1% |
| Nc1nc(SCC(=O)N2CCOCC2)[nH]c(=O)c1-c1ccccc1 | -8.5% | i |
| S=C(NCC1COc2ccccc2O1)Nc1ccc(Br)cc1 (centres undefined) | -6.4% | i |
| COc1ccc(OCCn2cc(C(=O)c3ccco3)c3ccccc32)cc1 | -12.0% | -21.8% |
| CCOCCCNC(=O)C(NC(=O)Cc1c[nH]c2ccccc12)c1ccccc1 (centres undefined) | 8.3% | 1.8% |
| Cc1cc(/C=c2\sc3nc4ccccc4n3c2=O)c(C)n1-c1ccc(C(=O)O)cc1 | 5.7% | -4.9% |
| CCOc1ccc(NC(=O)N(Cc2cn(CC)c3ccccc23)C2CCCCCC2)cc1 | -24.2% | u |
| Cc1cccc(N2CCN(C(=O)c3cccc(-n4c(C)nc5cccnc54)c3)CC2)c1C | -29.2% | i |
| C(=N\Nc1ccc2nncn2n1)/c1ccccn1 | u | u |
| COC(=O)Cn1nnc(N2CCOCC2)n1 | -10.1% | -3.1% |
| O=C(COC(=O)Cn1nnc2ccccc21)NC1CCCC1 | -6.8% | -7.3% |
| O=C(COc1ccc(C(=S)N2CCOCC2)cc1Cl)Nc1ccccc1Cl | -2.2% | -7.0% |
| O=C(NCCCN1CCOCC1)c1ccc2c(c1)N(Cc1cccc(Cl)c1)C(=O)c1ccccc1S2 | u | -30.0% |
| O=[N+]([O-])NC1=NCCN1Cc1ccc(Cl)nc1 | 2.6% | i |
| Cc1ccc(OC(C)C(=O)N(C)Cc2ccccc2)c([N+](=O)[O-])n1 (centres undefined) | -9.5% | -4.4% |
| COc1ccccc1N1CCN(C(=O)CSc2nc3ccccc3nc2N2CCC(C)CC2)CC1 | -6.8% | -23.6% |
| CN(CCc1ccccc1)C(=O)c1ccc(NC(=O)Cc2cccc(NC(=O)C3CCN(C(=O)c4ccccc4)CC3)c2)cc1 | -0.2% | -4.8% |
| CC(C)(C)c1ccc(Oc2coc3cc(OCC(=O)O)ccc3c2=O)cc1 | -2.7% | -6.4% |
| Cc1ccccc1OCC(O)Cn1c(N2CCN(c3ccccc3)CC2)nc2c1c(=O)[nH]c(=O)n2C (centres undefined) | -3.0% | -12.9% |
| CCCC(=O)N1CCCC1(C)C(=O)NCc1ccc(SC)cc1 (centres undefined) | -6.7% | 4.2% |
| Cc1ccc(NC(=O)CCNS(=O)(=O)c2cc(Br)cnc2N)cc1Cl | u | -29.4% |
| CC(C)C(=O)NC(c1ccc(N(C)C)cc1)c1ccc2cccnc2c1O (centres undefined) | u | 3.98µM* |
| CCOc1ccc(C(=O)CN2C(=O)NC3(CCCCCC3)C2=O)cc1 | -9.5% | -16.6% |
| O=C(Cc1ccc(NC(=O)C2CCCN(C(=O)C3CCCCC3)C2)cc1)Nc1ccc(C(=O)N2CCOCC2)cc1 (centres undefined) | 7.6% | -13.5% |

The closing 3 entries of the part above lead into the next.
| SMILES | Vaccinia Venus | VACV mCherry inh |
| --- | --- | --- |
| CC(C)C(=O)NC(c1ccc(N(C)C)cc1)c1ccc2cccnc2c1O (centres undefined) | u | 3.98µM* |
| CCOc1ccc(C(=O)CN2C(=O)NC3(CCCCCC3)C2=O)cc1 | -9.5% | -16.6% |
| O=C(Cc1ccc(NC(=O)C2CCCN(C(=O)C3CCCCC3)C2)cc1)Nc1ccc(C(=O)N2CCOCC2)cc1 (centres undefined) | 7.6% | -13.5% |
| COc1cc(OC)cc(C(=O)NCc2ccc3c(c2)CCN3C(=O)c2ccccc2)c1 | -20.6%[7.34 µM] | -27.7%[7.34 µM] |
| Cc1ccc2nc(/C(C#N)=C\c3ccc(N4CCCCC4)c([N+](=O)[O-])c3)[nH]c2c1 | -11.7% | u |
| CCOc1ccc(C(C(=O)NCC2CCCO2)N(Cc2ccccc2)C(=O)c2snc(C(N)=O)c2N)cc1 (centres undefined) | -5.0% | i |
| Cc1cccc(N2CCN(S(=O)(=O)c3cc(C(=O)Nc4ccc(Oc5ccccc5)cc4)ccc3F)CC2)c1C | -25.5% | -27.2% |
| CN(C)c1ccc(CNCCC2(O)CCOC(C)(C)C2)cc1 (centres undefined) | -7.6% | -8.3% |
| O=c1[nH]n(-c2ccccn2)c(=O)c2ccccc12 | 1.7% | -11.1% |
| COc1ccc(OC)c(NS(=O)(=O)c2ccc3c(c2)n(C)c(=O)n3C)c1 | -5.0% | -9.7% |
| Cc1cc2ccccc2c(=O)n1CC(=O)NCC(=O)N1CCCC(C)C1 (centres undefined) | -8.9% | -18.7% |
| O=C(O)CCCC(=O)Nc1ccc(N2CCCC2)cc1 | -3.3% | -10.4% |
| COc1ccc(NC(=O)c2sc3nc(C)nc(N4CCN(c5ccccn5)CC4)c3c2C)cc1Cl | -18.6% | -3.2% |
| Cc1ccc(C)c(S(=O)(=O)N(C)C2CCS(=O)(=O)C2)c1 (centres undefined) | 2.4% | -22.7% |
| CC1CCc2sc(C(=O)N3CCN(c4ncccn4)CC3)cc2C1 (centres undefined) | -2.5% | -3.9% |
| O=C(NCc1ccccc1)c1cc(C2CCCCN2C(=O)c2ccccc2)on1 (centres undefined) | 2.4% | 18.7% |
| Cc1ccc(CNC(=O)CNS(=O)(=O)c2ccc(Br)s2)cc1 | -9.6% | i |
| O=C1NC[C@@H](CCCCN2CCN(CCc3ccc(O)cc3)C(=O)C2=O)N(CC2CCCCC2)C1=O | 0.7% | 14.4% |
| COc1ccc(-c2cc(-c3nc4ccccn4c3NCc3ccccc3)ccc2OC)cc1 | 11.2µM* | u |
| Cc1ccccc1-c1nc(-c2ccccn2)no1 | 8.7% | 0.3% |
| COc1ccc(CC(=O)NC(C)c2ccc(Cl)c(Cl)c2)cc1S(=O)(=O)N1CCOCC1 (centres undefined) | -20.3% | u |
| COc1cc(-c2cc3n(C)c(C)c(CCC(=O)NC4CCCCC4)c(=O)n3n2)cc(OC)c1OC | -6.4% | -10.3% |
| Cc1nnc(SCC2=C(C(=O)O)N3C(=O)C(NC(=O)C(C)n4nc(C(F)(F)F)cc4C)C3SC2)s1 (centres undefined) | -6.9% | i |
| COc1ccc(NS(=O)(=O)c2csc(C(N)=O)c2)cc1OC | -3.8% | i |
| COc1ccc(N(CC(=O)N2CCN(c3ccc(Cl)cc3)CC2)S(=O)(=O)c2c(C)n[nH]c2C)cc1 | -22.7% | i |
| C=CCSc1nnc(COc2ccc(=O)n(-c3ccccc3)n2)n1CC | -12.7% | -0.5% |
| COc1ccc(-c2nc3ccccc3n3c(-c4cccc(C)c4)c4c(=O)n(C)c(=O)n(C)c4c23)cc1 | -8.8% | -22.5% |
| CCOC(=O)C(NC(=O)c1ccccc1F)(Nc1cc(C)on1)C(F)(F)F (centres undefined) | -1.2% | -8.7% |
| COc1ccc(C(=O)C[n+]2ccc(N)c(C)c2C)cc1 | -17.4% | -2.3% |
| CCOC(=O)c1c(NC(=O)c2ccco2)sc2c1CCCCC2 | -10.1% | i |
| COCCN(C(=O)Cn1nnc2ccccc21)C(C(=O)NC1CCCC1)c1cc(OC)ccc1OC (centres undefined) | -14.7% | x |
| CCOc1ccccc1NC(=O)N1CCCC(c2nc3c(nnn3Cc3ccc(C)cc3)c(=O)[nH]2)C1 (centres undefined) | -12.5% | -23.5% |
| O=S(=O)(NC1CCCC1)c1ccccc1Br | -3.1% | i |

Next structures follow:
| SMILES | Vaccinia Venus | VACV mCherry inh |
| --- | --- | --- |
| O=C(c1cc2ccccc2o1)N1CCCCCC1 | -17.5% | -1.8% |
| CCOc1cc(CN2CCCC(C(=O)c3cccc(C(F)(F)F)c3)C2)ccc1O (centres undefined) | -8.9% | -17.9% |
| O=C(NCCc1nc2ccccc2n1Cc1ccc(Cl)cc1)c1ccccc1 | -6.6% | -8.6% |
| COc1ccccc1NC(=O)CC12CC3CC(CC(Br)(C3)C1)C2 | -2.8% | -12.7% |
| COc1ccc(/C=N\NS(=O)(=O)c2ccc(Cl)cc2)cc1COc1ccccc1[N+](=O)[O-] | -12.8% | -1.7% |
| CCN(CCCl)c1cc(CN(C)C)cc(NC(=O)c2ccc(C(=O)Nc3cc(CN(C)C)cc(N(CC)CCCl)c3)cc2)c1 | 2.82µM* | 1.26µM* |
| N#C/C(=C\c1ccc(F)cc1F)S(=O)(=O)c1ccccn1 | -12.5% | i |
| COc1ccc(/C=C(/NC(=O)c2ccco2)C(=O)NCCc2ccccc2)cc1 | -16.5% | i |
| Cc1cc(C)c2c(CC(=O)Nc3ccc(Cl)cn3)coc2c1 | u | u |
| COc1c(Cl)cc(Cl)cc1C(=O)Nc1ccc(NC(C)=O)cc1 | -10.0% | -14.2% |
| Cn1c(NCc2ccccc2)cc(=O)n(C)c1=O | -10.5% | -5.6% |
| COC(C(=O)NNS(=O)(=O)c1ccc([N+](=O)[O-])cc1)c1ccccc1 (centres undefined) | -0.9% | -10.8% |
| CCN(C(=O)COC(=O)c1cnc(C)cn1)C1CCS(=O)(=O)C1 (centres undefined) | -8.9% | i |
| CC(C)(C)n1nnnc1C(c1ccc(F)cc1)N1CCN(Cc2ccc3c(c2)OCO3)CC1 (centres undefined) | -8.4% | -18.3% |
| COc1ccc(NC(=O)C(NC(=O)Cc2cccs2)c2ccc(C)cc2)cc1 (centres undefined) | -8.0% | i |
| Cc1ccc(Cn2c(CNS(=O)(=O)c3ccc(C(C)(C)C)cc3)nc3cccnc32)cc1 | -17.3% | -3.5% |
| COC(=O)COc1cc(C)cc2oc(=O)c(CC(=O)OC)c(C)c12 | -13.3% | x |
| CCOc1ccc(-n2cc(-c3ccccc3)c3c(N4CCC(C)CC4)ncnc32)cc1 | -16.7% | i |
| O=C(NC1CC(=O)N(c2ccc(Cl)cc2)C1)N1CCN(C(=O)c2ccco2)CC1 (centres undefined) | -16.9% | -0.8% |
| COc1ccccc1NC(=O)Cn1ccn(-c2cccc3ccccc23)c(=O)c1=O | -28.3% | -13.2% |
| COc1cc(/C=N/N2C(=O)C3C4c5ccccc5C(c5ccccc54)C3C2=O)ccc1O (centres undefined) | -11.9% | -4.5% |
| COc1cc(OC)cc(C(=O)Nc2ncc3c(n2)CC(C)(C)CC3=O)c1 | 13.2% | 8.5% |
| CC1(C(=O)Nc2ccccc2)CCN1C(=O)Cc1ccc(-c2ccccc2)cc1 (centres undefined) | 25.3% | 23.0% |
| Cc1ccc(S(=O)(=O)NC2(C(F)(F)F)NC(=O)N(c3ccccc3F)C2=O)cc1 (centres undefined) | -6.6% | -15.7% |
| O=C(O)c1csc(-c2ccccc2)n1 | -10.9% | -14.6% |
| CC(CC(=O)Nc1ccc2c(c1)c(=O)n(C)n2Cc1cccc(C(F)(F)F)c1)C(F)(F)F (centres undefined) | 0.2% | 23.7% |
| CCc1cc2c(CN3CCN(C)CC3)cc(=O)oc2cc1O | -10.3% | -13.9% |
| Cc1ccc(-c2cc(C(=O)N3CCOCC3)no2)cc1 | -8.4% | -8.6% |
| CCOC(=O)c1ccc(NS(=O)(=O)c2ccc3c(c2)OCCO3)cc1 | 4.6% | -10.2% |
| CCC(C)c1ccc(N(C(=O)c2ccco2)C(C(=O)NC2CCCC2)c2cccnc2)cc1 (centres undefined) | -18.3% | i |

The final three records of the part before open the next one.
| SMILES | Vaccinia Venus | VACV mCherry inh |
| --- | --- | --- |
| Cc1ccc(-c2cc(C(=O)N3CCOCC3)no2)cc1 | -8.4% | -8.6% |
| CCOC(=O)c1ccc(NS(=O)(=O)c2ccc3c(c2)OCCO3)cc1 | 4.6% | -10.2% |
| CCC(C)c1ccc(N(C(=O)c2ccco2)C(C(=O)NC2CCCC2)c2cccnc2)cc1 (centres undefined) | -18.3% | i |
| COc1ccc(C(=O)NNC(=O)CSc2nnnn2-c2cc(OC)cc(OC)c2)cc1 | -19.4% | i |
| COc1cc(S(=O)(=O)Nc2ccc(C)cc2)ccc1N=Cc1c(C)[nH]n(-c2ccc(C)cc2)c1=O | u | u |
| Cc1ccc(S(=O)(=O)N2C[C@@H]3[C@H]4CC[C@H](C4)[C@@H]3[C@@H](C)[C@@H]2c2ccn([Si](C(C)C)(C(C)C)C(C)C)c2)cc1 | 4.1% | -21.3% |
| C/C(N)=C(/C#N)C(=O)COC(=O)c1ccc(OCC2CCCO2)cc1 (centres undefined) | 0.0% | -2.9% |
| CCCn1cc(S(=O)(=O)c2ccc(C)cc2)c(=O)c2cc(OC)ccc21 | -28.6% | -12.1% |
| Cc1nnsc1-c1c(C(=O)O)c(C)nn1-c1ccc(OC(F)(F)F)cc1 | -0.1% | -12.4% |
| CC(=O)N1CCN(Cc2nc3cc(NC(=O)c4ccccc4C)ccc3n2C)CC1 | -13.7% | x |
| CC(NS(=O)(=O)c1ccc(Br)cc1)C(=O)NCC1CCCO1 (centres undefined) | -15.4% | i |
